YopH PTP inh: YopH tyrosine phosphatase inhibitors, primary screen, biochemical, fluorescence Ex485/Em525. 140,000 compounds, 0.16% hits. inhibition, %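 (about 10 µM by stock and volumes)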. YopH tyrosine phosphatase [Yersinia enterocolitica];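 active = inhibition of 50% or more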;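 note: controls were vehicle for no effect and minimum signal wells for full effect; inactives centre near -20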
RecA intein inh: Mtb RecA intein splicing inhibitors, primary screen, biochemical, fluorescence, HTS | Protein RecA (Mycobacterium tuberculosis (strain ATCC 25618 / H37Rv)), P9WHJ3 | cell-free RecA intein splicing | inhibition, %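 (about 9 µM by stock and volumes)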 | 290,000 compounds, 0.75% hits; in the data active = inhibition above about 30%; inconclusive = no clear call, values can overlap the other calls;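 note: 0% = vehicle wells and 100% = reference inhibitor control wells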
Target sequence (P9WHJ3 whole entry, looked up): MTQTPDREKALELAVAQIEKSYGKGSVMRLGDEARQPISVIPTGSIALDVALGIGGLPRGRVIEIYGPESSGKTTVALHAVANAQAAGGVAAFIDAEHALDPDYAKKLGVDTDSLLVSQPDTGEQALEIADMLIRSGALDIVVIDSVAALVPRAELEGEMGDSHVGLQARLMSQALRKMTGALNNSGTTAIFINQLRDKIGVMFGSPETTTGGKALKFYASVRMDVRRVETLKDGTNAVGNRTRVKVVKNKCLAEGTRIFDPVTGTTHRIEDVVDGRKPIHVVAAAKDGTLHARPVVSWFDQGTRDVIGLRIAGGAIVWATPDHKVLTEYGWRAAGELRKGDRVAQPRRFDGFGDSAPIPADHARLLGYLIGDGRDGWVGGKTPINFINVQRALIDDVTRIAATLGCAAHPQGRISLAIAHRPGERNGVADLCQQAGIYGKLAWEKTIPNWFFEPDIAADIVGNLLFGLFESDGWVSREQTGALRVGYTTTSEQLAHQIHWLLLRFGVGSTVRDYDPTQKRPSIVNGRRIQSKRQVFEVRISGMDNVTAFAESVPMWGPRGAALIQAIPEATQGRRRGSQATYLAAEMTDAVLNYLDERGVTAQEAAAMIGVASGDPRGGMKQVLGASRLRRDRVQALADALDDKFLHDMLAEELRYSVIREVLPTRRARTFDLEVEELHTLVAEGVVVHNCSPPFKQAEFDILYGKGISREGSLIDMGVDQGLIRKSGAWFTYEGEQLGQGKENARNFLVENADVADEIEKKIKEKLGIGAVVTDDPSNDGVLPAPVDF
Mtb H37Rv: M. tuberculosis H37Rv growth inhibitors, H37Rv strain (AID 1626) | M. tuberculosis H37Rv growth inhibition; higher % means a stronger effect | inhibition, % at 10 µM; hits with a dose series show IC50 in µM | 220,000 compounds, 0.95% hits;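 active = confirmed in a dose series; inconclusive = inhibition above 80% but not taken into the dose series; inactive = below 80% or under 30% at every dose of the series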;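 note: bacteria incubated seven days before Alamar blue readout; 0% = bacteria only wells and 100% = bacteria with antibiotic wells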
Mtb betalactam: beta-lactam sensitization of Mtb H37Rv, H37Rv | 330,000 compounds, 0.27% hits | M. tuberculosis H37Rv growth with meropenem, percent inhibition; hits of this screen are not shown here | inhibition, % at 25 µM;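 active = about 74% or more and at least 40 points above the plate without the antibiotic, then above 30% in a dose series; inconclusive = first-round hits that could not be retested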;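 note: growth measured after seven days incubation then overnight dye step; 0% = bacteria only wells and 100% = bacteria with antibiotic; twin plates without the antibiotic show which effects depend on it; some results filed as inactive read as strong as hits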
Arbovirus inh: antivirals against arbovirus infection, primary screen, cell-based, full library, 10K replicate subset. arbovirus infection cell-based antiviral screen. inhibition, % at 10 µM. 200,000 compounds, 0.37% hits;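 active = inhibition from about 30%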;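 note: bluetongue infection of BSR cells; cell survival read as ATP light after 72 h; 0% = infected wells without compound and 100% = uninfected wells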
Arbovirus inh repeat: second read-out of Arbovirus inh, no call of its own (marks repeat the call); inhibition, %; measured here: 10K subset replicate screen; many hits read low in the repeat;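 first of two repeat runs on a subset; 0% = infected and 100% = uninfected wells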
Numbers without * were called inactive; ? = inconclusive; . = not tested or not shown. Only part of the results is shown. The share of hits here may be higher or lower than overall.

SMILES	YopH PTP inh	RecA intein inh	Mtb H37Rv	Mtb betalactam	Arbovirus inh	others
CCn1nnc2cc(C(=O)Nc3cc(OC)cc(OC)c3)ccc21	.	1.7	.	-2	.
Cc1nc(N)sc1-c1csc(N(C)c2ccc(O)cc2)n1	2	6.8	0%	3	-27
CC(=O)c1ccc(NC(=O)C2CC(=O)N(Cc3ccccc3)C2)cc1 (centres undefined)	-15	-0.3	-2%	-10	-3
Cc1cc(C)nc(NS(=O)(=O)c2ccc(NC(=O)CCC3COc4ccccc4O3)cc2)n1 (centres undefined)	-55	2.4	1%	-3	5
CCOC(=O)c1ccc(N2C(=O)CC(SCC(N)C(=O)OCC)C2=O)cc1 (centres undefined)	-19	0.8	-8%	5	12	Arbovirus inh repeat=1
O=S(=O)(NCc1csc(-c2cccnc2)n1)c1cccs1	-34	2.4	10%	-2	-7	Arbovirus inh repeat=0
COCCNC(=O)CCC(=O)NNc1nc2ccccc2c2nc(C)nn12	.	-3.3	-1%	7	5
COc1ccccc1NC(=O)C(C)OC(=O)C1CC(=O)N(c2ccc3c(c2)OCCO3)C1 (centres undefined)	.	2.0	.	-9	.
COc1ccc(C(=O)C2CCN(C(=S)Nc3ccc(F)cc3)CC2)cc1	.	.	-3%	3	16
COC(=O)CCCC1=CC2=CC(=O)C(C)(OC(=O)c3cccs3)C(=O)C2=CN1CCc1ccccn1 (centres undefined)	.	7.5	1%	-1	.
COc1ccc(/C=C2\CCCC(C(=O)C(F)(F)F)=C2O)cc1	-5	-3.8	8%	-1	7
Cn1c(SCc2ccc(C(C)(C)C)cc2)nnc1C1COc2ccccc2O1 (centres undefined)	.	15	6%	87	.

Next part, overlapping the part above by five compounds.
SMILES	YopH PTP inh	RecA intein inh	Mtb H37Rv	Mtb betalactam	Arbovirus inh	others
COc1ccccc1NC(=O)C(C)OC(=O)C1CC(=O)N(c2ccc3c(c2)OCCO3)C1 (centres undefined)	.	2.0	.	-9	.
COc1ccc(C(=O)C2CCN(C(=S)Nc3ccc(F)cc3)CC2)cc1	.	.	-3%	3	16
COC(=O)CCCC1=CC2=CC(=O)C(C)(OC(=O)c3cccs3)C(=O)C2=CN1CCc1ccccn1 (centres undefined)	.	7.5	1%	-1	.
COc1ccc(/C=C2\CCCC(C(=O)C(F)(F)F)=C2O)cc1	-5	-3.8	8%	-1	7
Cn1c(SCc2ccc(C(C)(C)C)cc2)nnc1C1COc2ccccc2O1 (centres undefined)	.	15	6%	87	.
O=C(NNc1nc(-c2ccccc2)cs1)c1ccc(F)cc1	.	0.8	-1%	89	-21
Cn1c(N)c(S(=O)(=O)N2CCCC2)c(=O)n(C)c1=O	.	-1.6	.	3	.
CC(C)c1ccc(NC(=O)c2ccc3c(c2)C(=O)N(Cc2cccnc2)C3=O)cc1	.	-0.2	.	?	.
Cc1sc2ncnc(N3CCCCC3C)c2c1C (centres undefined)	-19	7.3	-2%	14	4
COc1ccc(-c2nnc(SC(C)C(=O)Nc3ccc4c(c3)OCCO4)o2)cc1 (centres undefined)	-30	-1.1	-1%	6	-2
NC(=O)CN(C/C=C/c1ccccc1)C/C=C/c1ccccc1	.	2.5	.	0	.
CCc1cccc(CC)c1N(COC)C(=O)Cn1cnc2ccccc21	.	1.2	-6%	-7	.
COc1ccc(C(C(=O)NC2CCCCC2)N(C(=O)c2ccco2)c2ccccc2C(C)=O)cc1 (centres undefined)	.	2.1	.	2	.
N=c1n(CCN2CCOCC2)c2ccccc2n1CC(=O)c1ccc(Cl)c(Cl)c1	-43	12	17%	10	-10
CC(CNC(=O)CCC(=O)N1CCOc2ccccc21)c1ccccc1 (centres undefined)	.	-0.1	.	-5	.
COC(=O)c1cc2c(C(F)(F)F)nn(C)c2s1	.	-1.0	-16%	-5	.
Cc1csc2c(C#N)c(=O)c3c(n12)CCC3	-54	-0.1	-9%	3	-1
CNC(=O)C1=C(C)NC(=S)NC1c1cccs1 (centres undefined)	.	0.9	0%	-2	11
COc1ccc(-c2cc(C(=O)N3CCCC3)no2)cc1	.	-4.6	.	3	.
COc1cc([N+](=O)[O-])ccc1NC(=S)Nc1cccc(C(=O)O)c1	-30	-2.7	-4%	1	-10
NC(=O)C1CCN(C(=O)CN(C2CCCCC2)S(=O)(=O)c2ccc(F)cc2)CC1	.	-2.3	.	1	.
Cc1cc([N+](=O)[O-])ccc1N=Nc1c(N)[nH]n(-c2ccccc2)c1=O	.	3.2	-1%	7	6
CC1CCCC(C)N1CC(C)(C)NS(=O)(=O)c1ccc(Cl)cc1 (centres undefined)	-6	-2.0	-3%	-4	-7
Cc1nc(NC(=O)C2CC2)sc1C(=O)Nc1ccccc1Cl	.	-1.1	.	-1	.
c1ccc(C2(CNc3ccccn3)CCCC2)cc1	-6	10	4%	-2	-1
Cc1cc(=O)c2cc(C(=O)c3ccccc3)ccc2[nH]1	.	-2.9	-5%	7	.
COc1ccc(C2C(C#N)=C(N)OC3=C2C(=O)CCC3)cc1OC (centres undefined)	.	-6.5	1%	1	2
O=S(=O)(Cc1ccco1)Cc1nc(-c2ccc(Cl)cc2)cs1	.	1.7	8%	-16	.
COc1ccc(CCNC(=O)[C@@H]2C[C@H]2c2ccccc2)cc1OC	-2	0.2	1%	-3	1
CCC(=O)Nc1cccc(NC(=O)c2cccc([N+](=O)[O-])c2)c1	5	-1.6	17%	-3	9
Cc1cc(C)c2c(N)c(S(=O)(=O)c3ccccc3)sc2n1	10	-4.0	-7%	-3	6
O=C(NCc1ccco1)C1CC(c2ccc(Cl)c(Cl)c2)=NO1 (centres undefined)	.	2.1	-9%	-9	-11
COc1ccc(Cn2nnc3c(=O)[nH]c(C4CCN(C(=O)c5ccccc5Cl)CC4)nc32)cc1	-23	0.7	12%	1	-2
CCOC(=O)c1ccc(N2C(=O)CC(N3CCCC(C)C3)C2=O)cc1 (centres undefined)	7	2.0	3%	-3	2
COc1ccc(CCNC(=O)c2ccc(=O)[nH]c2)cc1	.	-3.2	8%	-11	-3
O=C(N/N=C/c1ccc(N2CCCCC2)o1)c1ccccc1	-23	.	2%	1	0
CC(=O)N1CCN(Cc2cc(=O)n3cc(Cl)c(C)c(Cl)c3n2)CC1	-19	.	-10%	-8	11
CCCCCn1c(CN2CCN(C(=O)OCC)CC2)nc2c1c(=O)[nH]c(=O)n2C	-14	-0.7	-9%	0	8
Cc1ccn2c(=O)nc(SCC(=O)NC3CCCC3)nc2c1	.	-1.7	.	4	.
CC(=O)Nc1cccc(NC(=O)Nc2cccc3ccccc23)c1	.	1.0	.	-1	.
COc1cccc(S(=O)(=O)Nc2cccc(C(=O)N3CCOCC3)c2)c1	2	3.4	4%	-2	-2
CCOc1ccccc1N1C(=O)c2ccc(C(=O)O)cc2C1=O	-28	0.9	2%	2	7
COc1ccc(C(=O)Nc2ccc(C(=O)NCCc3ccc(OC)c(OC)c3)cc2)cc1	.	-0.3	-5%	2	-8
Cc1c(Cl)cn2c(=O)cc(CN3CCN(c4ccc(F)cc4)CC3)nc2c1Cl	.	.	0%	3	5
O=C(CNC(=S)NC(=O)c1ccccc1)c1ccccc1	-25	-0.4	?	8	-20
O=c1[nH]c(O)c(/C=C2\C=Nc3ccc(OCc4ccccc4)cc32)c(=O)[nH]1	.	-4.6	.	6	.
CCSc1nc2c(sc3ccccc32)c(=O)n1C(C)C	-30	18	2%	6	-12
CN1CCN(NC(=O)c2cc(S(=O)(=O)Nc3ccc(Cl)cc3)ccc2Cl)CC1	.	1.3	-8%	-2	.
CN(Cc1cn(C)nc1-c1cccc(Cl)c1)C1CCOCC1	.	3.6	.	-4	-1
O=C(COC(=O)c1cc(Br)ccc1O)Nc1cccnc1Cl	.	0.9	.	-1	.
c1cc(CNC2=NCCCCC2)ccn1	-45	1.0	10%	5	5
O=C(Nc1ccccn1)c1ccc(Cl)s1	.	-1.5	.	-17	.
Cn1c(-c2ccc3c(c2)OCO3)cnc1NCc1ccccc1Cl	.	-0.7	33%	11	-9
O=C(c1cc(-c2ccccc2)on1)N1CCN(C(=O)c2ccco2)CC1	-32	-0.5	-6%	0	6
CC1(C)CC(=O)C2=C(C1)N(Cc1ccccc1)C(=O)C2(O)C(F)(F)F (centres undefined)	19	-7.0	-1%	-11	-2
CCCNC(=O)c1cc2c3ccccc3n(C)c2s1	-10	0.2	-21%	-21	-13
CCOc1cccc(NC(=O)C2CC(=O)N(C)C(=Nc3ccccc3)S2)c1 (centres undefined)	-39	5.3	0%	11	-6
NC(N)=Nc1nc2ccc(Cl)cc2c(=O)[nH]1	.	-2.7	-1%	-8	6
Cc1ccc(S(=O)(=O)N2CCCC2)s1	.	-0.6	.	-13	.
N#CCSc1nn(-c2ccc(F)cc2)c(=S)s1	.	3.1	4%	7	1
COC1(c2ccccc2)NC(=S)NN=C1c1ccccc1 (centres undefined)	-25	-8.2	2%	19	7
CCOC(=O)CSC1=C(C#N)C(c2ccc(C)cc2)C(C(=O)OC)C(=O)N1 (centres undefined)	-26	6.0	1%	-12	5
Cc1cccc(C)c1NC(=O)C1CCCN1C(=O)NCc1ccccc1 (centres undefined)	.	-2.8	.	4	.
Cc1ccc(N2C(=O)N(CC(=O)Nc3c(C)cc(C)cc3Cl)C(=O)C2C)cc1 (centres undefined)	.	2.1	.	2	.
c1ccc2c(c1)CC1CNCc3cccc(c31)S2 (centres undefined)	-35	-0.1	68%	.	-30

Following part
SMILES	YopH PTP inh	RecA intein inh	Mtb H37Rv	Mtb betalactam	Arbovirus inh	others
O=C(/C=C/c1ccoc1)c1ccccc1O	-33	2.3	3%	2	-7
COc1ccc(CSc2n[nH]c(C)n2)cc1Br	-38	-0.2	-1%	7	-1
CCOc1ccc(/C(O)=C2\C(=O)C(=O)N(c3ccc(OC)cc3)C2c2ccccc2[N+](=O)[O-])cc1 (centres undefined)	.	2.0	-12%	-4	.
COc1ccc(N2C(=O)CC(N3CCC(O)(c4cccc(C(F)(F)F)c4)CC3)C2=O)cc1 (centres undefined)	-16	0.6	-7%	-5	-2
COC(=O)c1c(NC(=O)C2CC2)sc(C(=O)Nc2ccccc2)c1C	.	0.9	8%	5	-18
Cc1ccccc1OCCSc1nc2ncnc(N)c2[nH]1	.	-0.5	-5%	-1	-34
CC(=O)c1c(N2CCN(C(=O)c3ccco3)CC2)nc(=S)n(-c2ccccc2)c1C	-4	-0.6	-2%	-2	4
CC1(c2nnc(-c3ccc(Cl)cc3)o2)CC(c2ccc(Cl)cc2)=NO1 (centres undefined)	.	4.9	-12%	-3	.
CNC(=O)COC(=O)[C@@H](Nc1ccc(S(=O)(=O)N2CCOCC2)cc1[N+](=O)[O-])C(C)C	-12	-1.1	-2%	2	2
CCc1nc(SCc2ccc(OC)cc2)n[nH]1	.	-1.4	.	0	.
Cc1ccc(C2CC(=O)NC3=C2C(=O)CCC3)cc1Br (centres undefined)	-45	-2.9	-5%	-3	11
COc1ccc(C(=O)O)cc1S(=O)(=O)N(C)CCc1cccnc1	-36	-0.6	-6%	-3	-1

3 entries out of the list, ordered by length of the SMILES, largest number first:
SMILES	YopH PTP inh	RecA intein inh	Mtb H37Rv	Mtb betalactam	Arbovirus inh	others
COC(=O)c1c(NC(=O)C2CC2)sc(C(=O)Nc2ccccc2)c1C	.	0.9	8%	5	-18
Cc1ccccc1OCCSc1nc2ncnc(N)c2[nH]1	.	-0.5	-5%	-1	-34
CCc1nc(SCc2ccc(OC)cc2)n[nH]1	.	-1.4	.	0	.

Later entries.
SMILES	YopH PTP inh	RecA intein inh	Mtb H37Rv	Mtb betalactam	Arbovirus inh	others
Cc1ccc(N2CCN(C3=NC(=O)C(Cc4ccccc4)S3)CC2)cc1 (centres undefined)	-37	4.4	14%	5	7
COc1ccc([N+](=O)[O-])cc1NC(=O)CSc1nc(C)c(C)c(C)n1	-31	2.9	9%	-1	-5
O=C(COc1ccc(Br)cc1)N1CCN(c2ccccc2)CC1	0	1.1	-3%	-8	1
CN=C(Cc1ccccc1)C1=C(O)CC(C)(C)CC1=O	.	-0.6	-9%	4	-2
Cc1nn(-c2ccccc2)c(Cl)c1/C=N/NC(=O)CNC(=O)c1ccccc1Cl	-22	-0.5	5%	1	-10
CC(C)N(C)C(=O)c1ccc(OC2CCN(CCc3ccccc3)CC2)cc1	.	-14	-2%	-3	-6
CCOc1ccc(S(=O)(=O)N2CCN(Cc3ccco3)CC2)cc1	.	-0.9	.	-19	.
CCn1c(-c2cc3c(C(F)(F)F)nn(C)c3s2)n[nH]c1=S	6	-3.6	-1%	-5	-3
Cc1ccccc1OCC(=O)NCc1ccccc1	.	0.7	8%	9	8

Compound activity from PubChem BioAssay.
